# Bioassay records (PubChem)
# NS1 inh – qHTS Assay for Inhibitors of Influenza NS1 Protein Function | S. cerevisiae slowed by influenza A NS1, growth recovery by OD600 | Potency, µM (titrated, usually from 46.1 µM), for inactives: top-dose activity, positive = more growth | hit rate 0.4% among 270,000; further: actives are rising curves; nearly all actives have a fitted effect of over 50% in size
#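 S. cerevisiae expressing influenza A NS1, grown in glucose, washed, then diluted 1:100 into pH 6.0 -URA galactose medium with 23 nl compound. Growth recovery read as OD600; NS1-free strain serves as control.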
# LASV entry inh – qHTS for Inhibitors of binding or entry into cells for Lassa Virus; Lassa virus pseudotype entry inhibition, cell reporter; control for the full effect not named in the record; hit rate 1.2% among 300,000; AID 540256, 2011; Potency, µM (series often up to 37.9 µM), inactives show top-dose activity change, negative = inhibition, usual class: inhibitors; active means well fitted inhibition curve with a large enough effect; inconclusive means small, poorly fitted or top-dose-only effect, or effect the other way; inactive means flat fitted curve, though single readings scatter; tested in HEK293 cells; further: on the % scale 0 is the no-effect control and ±100 the full control effect; nearly all actives have a fitted effect of over 50% in size; luciferase read-out
# SARS PLP yeast – qHTS of Yeast-based Assay for SARS-CoV PLP; S. cerevisiae expressing SARS-CoV PLpro, growth rescue; control for the full effect not named in the record; Potency, µM (top dose mostly 32.9 µM), for inactives: at the highest dose activity, positive = growth rescue; hit rate 0.19% among 330,000; AID 485353, 2010; further: 0% is about no effect; nearly all actives have a fitted effect of over 55% in size; growth read by luminescence after 48 h
# MARV entry inh – qHTS for inhibitors of binding or entry into cells for Marburg Virus | Marburg virus pseudotyped entry inhibition, cell reporter; control for the full effect not named in the record; about a third of the inactives were read at about 46 µM | Potency, µM (doses to about 37.8 µM), inactives show top-dose activity change, negative = inhibition, actives largely listed as inhibitors | hit rate 1.8% among 300,000; active = well fitted inhibition curve with a large enough effect; inconclusive = small, poorly fitted or top-dose-only effect, or effect the other way; inactive = flat fitted curve, though single readings scatter; tested in HEK293 cells; about a fifth of its hits are not listed in these tables; further: on the % scale 0 is the no-effect control and ±100 the full control effect; luciferase read-out
# StopGo reporter – High Throughput Screening for Foot and Mouth Disease Virus Antivirals. human cells with a luciferase reporter of 2A StopGo recoding; control for the full effect not named in the record. Potency, µM (series often up to 57.9 µM), for inactives: top-dose signal change, negative = less light. hit rate 1.2% among 410,000; active = well fitted falling curve with a large enough effect; inconclusive = small, poorly fitted or top-dose-only effect; inactive = no such curve, though single readings can be large or run the other way; tested in HEK293T cells; further: on the % scale 0 is the no-effect control and ±100 the full control effect; nearly all actives have a fitted effect of over 45% in size; luciferase light after 4 h
# Cruzain Triton – qHTS Assay for Promiscuous and Specific Inhibitors of Cruzain (with detergent); Potency, µM, inactives show max response, negative = inhibition, hits mostly inhibitors; hit rate 0.43% among 200,000; Cruzipain (Trypanosoma cruzi), P25779; purified cruzain, Z-FR-AMC fluorescence, 0.01% Triton; active means well fitted curve in the direction sought with a large enough effect; inconclusive means small, poorly fitted or top-dose-only effect, or another doubt; inactive means no such curve, though single readings can be large; an effect the other way counts as inactive or inconclusive;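 further: plate controls were neutral wells for no effect and buffer without enzyme for full effect; nearly all actives have a fitted effect of over 40% in size; top concentration of the series not given in the record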
# Target sequence (P25779 123-467 limits assumed): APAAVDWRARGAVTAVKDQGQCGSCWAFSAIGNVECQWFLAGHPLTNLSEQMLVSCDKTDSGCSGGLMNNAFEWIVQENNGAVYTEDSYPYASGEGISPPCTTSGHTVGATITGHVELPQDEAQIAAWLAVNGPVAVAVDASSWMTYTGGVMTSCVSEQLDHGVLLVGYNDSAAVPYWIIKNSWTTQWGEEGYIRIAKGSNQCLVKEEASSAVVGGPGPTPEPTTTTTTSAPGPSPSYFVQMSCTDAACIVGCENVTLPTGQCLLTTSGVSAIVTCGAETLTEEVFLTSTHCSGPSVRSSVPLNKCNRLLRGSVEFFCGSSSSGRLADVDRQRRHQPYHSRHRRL
#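 Cysteine protease activity tested under reducing, mildly acidic conditions (100 mM sodium acetate pH 5.5, 5 mM DTT) plus 0.01% Triton X-100. Cruzain 1.5 nM; substrate Z-FR-AMC 2 uM; 15 min compound preincubation at room temperature.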
# Cruzain inh noDet – qHTS Assay for Promiscuous and Specific Inhibitors of Cruzain (without detergent). purified cruzain, Z-FR-AMC fluorescence, no detergent. Potency, µM, for inactives: max response, negative = inhibition, hits mostly inhibitors. hit rate 2.3% among 200,000. AID 1476, 2009; active means well fitted curve in the direction sought with a large enough effect; inconclusive means small, poorly fitted or top-dose-only effect, or another doubt; inactive means no such curve, though single readings can be large; an effect the other way counts as inactive or inconclusive;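 further: plate controls were enzyme without inhibitor for no effect and buffer without enzyme for full effect; nearly all actives have a fitted effect of over 40% in size; top concentration of the series not given in the record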
#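 Detergent-free condition (0.00005% Triton X-100) in acetate buffer pH 5.5 with DTT. 1.5 nM enzyme and compound were pre-mixed 15 min, then 2 uM Z-FR-AMC substrate added; reaction progress from fluorescence change between first and third reads (60 s).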
# RE007 growth inh – qHTS Assay for Inhibitors of the HIV-1 protein Vpr; S. pombe RE007 Vpr strain, BacTiter-Glo ATP luminescence, 24 h; control for the full effect not named in the record; Potency, µM (titrated, usually from 92.2 µM), inactives show top-dose activity change, negative = less growth; hit rate 0.21% among 360,000; active = well fitted falling curve with a large enough effect; inconclusive = small, poorly fitted or top-dose-only effect; inactive = no such curve, though single readings can be large or run the other way;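 further: on the % scale 0 is the no-effect control and ±100 the full control effect; nearly all actives have a fitted effect of over 50% in size; the assay follows cell death caused by Vpr and the record does not say whether a fall means rescue or toxicity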
#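 Fission yeast RE007 carrying one integrated HIV-1 vpr copy, seeded at OD 0.01 in PMG+AL medium with 23 nL pinned compound. Grown 24 h at 30 degrees; viability read by BacTiter-Glo luminescence after 5 min.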
# The depositor's hits bear a star; ? = inconclusive; nt = no result given; & = joins results of further samples; [ ] = dose if it differs, or a comment. Unless noted, the call rests on the fitted dose curve; in most records, active means well fitted rising curve with a large enough effect; inconclusive means small, poorly fitted or top-dose-only effect; inactive means no such curve, though single readings can be large or run the other way. Potency means the concentration at half of the fitted maximal effect.
SMILES,NS1 inh,LASV entry inh,SARS PLP yeast,MARV entry inh,StopGo reporter,Cruzain Triton,Cruzain inh noDet,RE007 growth inh
CCOC(=O)NNc1cc(C(F)(F)F)ccn1,1%,16%[46.1 µM],1%,2%[46.1 µM],-11%,nt,nt,13%
COc1cc(CO)c(Br)cc1OCC(N)=O,11%,-4%,0%,-1%[46.1 µM],-5%,nt,nt,-19%
COc1cc(/C=N/n2c(-c3cc(C)[nH]n3)n[nH]c2=S)cc(OC)c1O,4%,9%,-1%,5%,19%,nt,nt,-7%
O=C(CCc1ccccc1)Nc1cc2c3c(c1)CCC(=O)N3CCC2,nt,-13%,1%,-3%,-5%,nt,nt,-12%
COCc1cc(C(C)=O)ccc1OC,-4%,14%,-2%,3%,-19%,9.1%,6%,-31%
CN(C)S(=O)(=O)c1ccc(Cl)c(NC(=O)CSc2nnnn2-c2ccc(O)cc2)c1,nt,nt,0%,14%[46.1 µM],?,nt,nt,8%
CCOc1ccc(Br)cc1S(=O)(=O)Nc1cccnc1,?,-1%,2%,0%[46.1 µM],24%,nt,nt,-7%
O=C(CCN1C(=O)c2ccccc2C1=O)Nn1cnnc1,2%,2%,13%,14%,-25%,0.5%,-3%,3%
CCc1ccc(Cn2nnc3c(=O)[nH]c(C4CCCN(C(=O)c5cccc(Cl)c5)C4)nc32)cc1 (stereo not given),nt,-16%[46.1 µM],nt,0%[46.1 µM],-12%,-13%,8%,nt
O=C(NCCc1ccc(Cl)cc1)C1CCN(S(=O)(=O)c2ccc3[nH]ccc3c2)CC1,nt,-12%[46.1 µM],nt,nt,-27%,-5.1%,?,nt
COc1cc(OC)c(C(=O)NC2CC(C)(C)NC(C)(C)C2)cc1OC,-2%,?,1%,-6%,19%,0.2%,-6%,2%
CCCNS(=O)(=O)c1ccc(CCC(=O)Nc2ccc3c(c2)OCCO3)cc1,6%,-1%,7%,6%,-6%,-3.5%,0%,10%
COc1cccc(COC(=O)c2ccc(S(=O)(=O)N3CCC(C)CC3)cc2)c1OC,nt,14%,-1%,?,?,nt,nt,4%
O=C(Cn1c(=O)cnc2ccccc21)N1CCN(S(=O)(=O)c2cccc([N+](=O)[O-])c2)CC1,nt,14%,3%,-3%,0%,nt,nt,-20%
Cc1ccccc1OC(=O)c1cc(-c2ccc3c(c2)OCCO3)on1,nt,-1%[46.1 µM],nt,-6%[46.1 µM],-17%,-8.2%,8%,nt
O=C(NNC(=O)c1ccccc1F)c1ccc(S(=O)(=O)N2CCCCC2)cc1,nt,11%[46.1 µM],19%,-2%[46.1 µM],8%,nt,nt,-1%
Cc1nn(-c2ccccc2)nc1C(=O)c1c(C)[nH]n(-c2ccccc2)c1=O,-2%,0%[46.1 µM],3%,28%[46.1 µM],-13%,nt,nt,20%
CSc1cc(-c2ccccc2)n(Cc2ccc(Cl)cc2Cl)c(=O)c1C#N,5%,-11%,5%,-1%,-20%,4.5%,25µM*,-21%
CC1CCCC(C)N1C(=O)CSc1nnc(NC(=O)Cc2cccs2)s1 (stereo not given),-2%,15%,6%,-8%,4%,2.0%,4%,17%
CC(=O)Oc1ccccc1C(=O)Nc1ccccc1C(=O)N1CCCCC1,7%,-1%,2%,-3%,38%[activator],nt,nt,-2%
CCCC(=O)OCC(=O)Nc1ccc(N=Nc2ccccc2)cc1,-20%,?,-61%,?,49%[activator],-8.0%,-13%,-1%
Cn1c(=O)cc(SCC(=O)NCC2CCCO2)c2ccccc21 (stereo not given),-2%,17%,-3%,15%,-4%,3.8%,9%,11%
COc1ccc(CC(=O)NCC2CCCN(Cc3ccccc3Cl)C2)cc1 (stereo not given),5%,nt,-4%,nt,0%,nt,nt,-7%
CC(=O)c1c(C)[nH]c(C(=O)Nc2ccc(Cl)c(S(=O)(=O)N3CCOCC3)c2)c1C,-9%,?,?,?,22µM*,-4.1%,-8%,3%
O=S(=O)(c1ccccc1)N1CCCCC1CCc1ccccc1 (stereo not given),nt,?,nt,?,?,nt,nt,19%
O=C(N/N=C/c1ccccc1F)c1cc2c(ccc3ccccc32)o1,-2%,nt,-9%,nt,-6%,nt,nt,-11%
O=C(NCc1cccnc1)Nc1cccc([N+](=O)[O-])c1,0%,nt,16%,nt,18%,nt,nt,4%
O=C(CO/N=C/c1ccccc1)N1c2ccccc2Oc2ccccc21,22%,5%,2%,?,-17%,-6.9%,-28%,21%
Cn1c(CO)cnc1SCC(=O)c1ccc(Br)cc1,nt,?,0%,?,19%,nt,nt,4%
Cc1oc2c(CN3CCCC3)c(O)ccc2c(=O)c1-c1ccc(Br)cc1,-11%,-16%,-1%,3%,nt,-5.4%,-10%,10%

# The last 4 entries of the part above lead into the next:
SMILES,NS1 inh,LASV entry inh,SARS PLP yeast,MARV entry inh,StopGo reporter,Cruzain Triton,Cruzain inh noDet,RE007 growth inh
O=C(NCc1cccnc1)Nc1cccc([N+](=O)[O-])c1,0%,nt,16%,nt,18%,nt,nt,4%
O=C(CO/N=C/c1ccccc1)N1c2ccccc2Oc2ccccc21,22%,5%,2%,?,-17%,-6.9%,-28%,21%
Cn1c(CO)cnc1SCC(=O)c1ccc(Br)cc1,nt,?,0%,?,19%,nt,nt,4%
Cc1oc2c(CN3CCCC3)c(O)ccc2c(=O)c1-c1ccc(Br)cc1,-11%,-16%,-1%,3%,nt,-5.4%,-10%,10%
C=CCC1(CC=C)CCCN1Cc1nc(COc2ccccc2)no1,9%,?,0%,-30%,6%,nt,nt,-2%
COc1ccc2c(C)c(CCC(=O)N3C[C@H]4C[C@@H](C3)c3cccc(=O)n3C4)c(=O)oc2c1,-4%,nt,-5%,nt,-12%,nt,nt,-8%
Cc1ccc(-n2c(=S)sc3c(=O)n(-c4ccc(F)cc4)c(SCC(=O)O)nc32)cc1C,?,-8%[46.1 µM],1%,-1%[46.1 µM],-11%,nt,nt,3%
CCOC(=O)/C(C#N)=C/c1ccc(-c2ccsc2C(=O)OC)o1,5%,?,-4%,4%,70%[activator],5.7%,-2%,12%
CCC1CCCCN1CCCNC(=O)c1c(O)nc2c(C)cccn2c1=O (stereo not given),-4%,nt,-1%,0%[46.1 µM],7%&-14%,-6.4%,-4%,0%
CN(Cc1nc(Cc2cccc(F)c2)no1)CC1CCOCC1,-3%,4%,-1%,3%[46.1 µM],-6%,nt,nt,8%
CN(Cc1ccon1)Cc1cn[nH]c1-c1ccc(-c2ccccc2)cc1,0%,?,-1%,-1%[46.1 µM],-1%,nt,nt,-8%
CCOC(=O)c1cc2c(=O)n3ccccc3nc2n(Cc2ccccc2)c1=N,0%,12%,1%,-3%&-12%,-9%,?,?,-5%
CCOC(=O)C1CCN(c2c(NCCC(C)C)c(=O)c2=O)CC1,2%,nt,-1%,nt,10%,nt,nt,6%
O=C(CSc1nnc(-c2csc3c2CCCC3)o1)Nc1ccccc1,-2%,nt,-7%,nt,34%[activator],2.9%,-14%,0%
CCn1c2ccccc2c2cc(NC(=O)Cc3ccc(S(=O)(=O)N4CCOCC4)s3)ccc21,?,-9%,-3%,?,17%,-2.1%,16µM*,12%
CC1CCCCC1NC(=O)c1nnc(Cc2ccc(Cl)cc2)o1 (stereo not given),-3%,-3%,13%,-3%,-17%,-0.1%,-1%,-11%
COc1cc(OC)cc(C(=O)Nc2nc(CC(=O)NCc3ccccc3OC)cs2)c1,nt,?,-3%,?,-30%,nt,nt,-19%
CCOC(=O)CSc1ccc(S(=O)(=O)N2CCC(C)CC2)cc1[N+](=O)[O-],-6%,10%&-4%,36%,2%&-1%,-22%,-1.7%,2%,-7%
Cc1ccccc1OCC(O)CN1C(=O)c2ccccc2C1=O (stereo not given),-6%,nt,-2%,nt,67%[activator],nt,nt,31%
CN1CCN(C(=O)c2ccc(CS(=O)Cc3ccc(Cl)cc3)o2)CC1 (stereo not given),-9%,nt,8%,nt,16%,nt,nt,-9%
CCCSCCCNC(=O)c1sc2nc(C)cc(C)c2c1-n1cccc1,nt,16%[46.1 µM],nt,?,-25%,-6.2%,?,nt
COc1cccc(C2C(C(=O)c3ccc(C)o3)=C(O)C(=O)N2c2cc(C)on2)c1 (stereo not given),-4%,nt,-2%,nt,-20%,nt,nt,0%
O=C(NCCCN1CCCC1)c1ccc2c(c1)N(Cc1ccccc1F)C(=O)c1ccccc1S2=O (stereo not given),25%,nt,22%,nt,-14%,nt,nt,1%
COc1c(OC(C)=O)ccc(/C=C/c2ccc3cccc(OCc4ccccc4)c3n2)c1[N+](=O)[O-],20%,?,14%,?,-5%,-2.1%,10µM*,-4%
COC(=O)/C=C1/SC(=Nc2ccc(Cl)c(Cl)c2)NC1=O,-2%,-30%,-1%,-2%[46.1 µM],-21%,nt,nt,0%
O=C(C[n+]1cc(-c2ccc(Cl)c(Cl)c2)n2c1CCC2)c1cccs1,8%,-2%,1%,-20%,0%,nt,nt,-14%
C=C1CN(CC(=O)OC)S(=O)(=O)c2ccccc21,6%,nt,2%,nt,0%,nt,nt,4%
O=[N+]([O-])c1ccc(-c2nnc(-c3ccccc3)c(N3CCOCC3)n2)cc1,5%,4%,1%,-20%,-7%,0.6%,-3%,-2%
COCCn1c(-c2ccccc2)nc2ccccc21,?,11%,19%,?,59%[activator],-1.3%,-6%,-2%
O=C(O)c1cc2n(n1)C(C(F)(F)F)CC(c1ccccc1)N2 (stereo not given),26%,9%,-2%,3%,-4%,7.2%,-3%,26%
CCOC(=O)c1nc2sc3c(c2c(=O)[nH]1)CCC(C)C3 (stereo not given),-6%,nt,-3%,nt,10%,nt,nt,-8%
